A647 autofl – compound autofluorescence in A647 spectral region; Compound fluorescence, A647 channel (570/671 nm), Tris buffer; max dye-equivalent concentration, M; 59,000 tested, under 10 active; AID 592; active means above 1 µM dye equivalent; inconclusive means 0.1 to 1 µM; inactive means 0.1 µM or less;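 note: values scaled relative to a standard on each plate; highest value over a series up to 38 µM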
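Each compound's intrinsic fluorescence at 570 nm excitation and 671 nm emission is measured across its concentration series in 100 mM Tris, pH 8.0, after 15 min at room temperature, and reported relative to an A647 curve.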
Resorufin autofl – compounds fluorescent in resorufin spectral region. Compound fluorescence, resorufin region 547/598 nm, buffer; active compounds read high. max dye-equivalent concentration, M. hit rate 0.04% among 59,000. AID 588; active = above 10 nM dye equivalent; inconclusive = 1 to 10 nM; inactive = 1 nM or less; a few of its hits are not listed in these tables; note: highest value over a series up to 38 µM
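Compounds in 100 mM Tris, pH 8.0, incubated 15 min at room temperature, then fluorescence read at 547 nm excitation/598 nm emission. Signal converted to dye-equivalent concentration via an on-plate six-point resorufin standard curve, per compound concentration.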
AID923 – qHTS Assay for Allosteric/Competitive Inhibitors of Caspase-1: Spectroscopic Profiling in AFC Spectral Region. Potency, µM (series often up to 57.5 µM), without a hit: top-dose fluorescence increase, hits mostly activators. hit rate 1.1% among 75,000. compound fluorescence, AFC spectral region (405/520 nm); almost no hit is shown here. AID 923, 2007; active = well fitted activation curve with a large enough effect; inconclusive = small, poorly fitted or top-dose-only effect;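 note: potency is the fitted concentration of half-maximal effect; 0% is about no effect; scaled to a free AFC standard on each plate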
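Titrations up to 57 uM read every 20 sec for 3 min (405/520 nm) with 50 nM caspase 1 and 5 uM Ac-WEHD-AFC, pH 7.5 HEPES buffer. Fluorescence-vs-time intercept gave baseline, scaled against on-plate AFC standard.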
A488 fluor – compound fluoresces in the A488 spectral region. AID 591. hit rate 0.1% among 59,000. max dye equivalency, M. compound autofluorescence, A488 spectral region, dye equivalency; active compounds read high; active = above 10 nM dye equivalent; inconclusive = 1 to 10 nM; inactive = 1 nM or less; about half of its hits are not listed in these tables;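 note: highest value over a series up to 38 µM; compound alone in buffer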
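Readout is A488 dye-equivalent concentration, calibrated by a per-plate six-point Alexa 488 series. Compounds in 100 mM Tris buffer pH 8.0 were incubated 15 min at room temperature. Plates were imaged using 480 nm excitation/540 nm emission filters.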
TSHR agonist – TSH receptor (human) agonism; P16473; HEK293-CNG-TSHR cells (CNG channel as cAMP sensor), membrane potential dye, cAMP; Potency, µM (highest dose often 57.1 µM), for the others: top-dose activation, hits mostly activators; hit rate 0.48% among 73,000; AID 926; active = well fitted activation curve of enough size with the parental cells flat; inconclusive = any curve in the parental cells; inactive = parental cells flat and receptor cells flat or falling; note: potency is the fitted concentration of half-maximal effect; % of control where 0% means no effect; weak receptor curves with flat parental cells got no call and are not listed
Target sequence (P16473 whole entry, looked up): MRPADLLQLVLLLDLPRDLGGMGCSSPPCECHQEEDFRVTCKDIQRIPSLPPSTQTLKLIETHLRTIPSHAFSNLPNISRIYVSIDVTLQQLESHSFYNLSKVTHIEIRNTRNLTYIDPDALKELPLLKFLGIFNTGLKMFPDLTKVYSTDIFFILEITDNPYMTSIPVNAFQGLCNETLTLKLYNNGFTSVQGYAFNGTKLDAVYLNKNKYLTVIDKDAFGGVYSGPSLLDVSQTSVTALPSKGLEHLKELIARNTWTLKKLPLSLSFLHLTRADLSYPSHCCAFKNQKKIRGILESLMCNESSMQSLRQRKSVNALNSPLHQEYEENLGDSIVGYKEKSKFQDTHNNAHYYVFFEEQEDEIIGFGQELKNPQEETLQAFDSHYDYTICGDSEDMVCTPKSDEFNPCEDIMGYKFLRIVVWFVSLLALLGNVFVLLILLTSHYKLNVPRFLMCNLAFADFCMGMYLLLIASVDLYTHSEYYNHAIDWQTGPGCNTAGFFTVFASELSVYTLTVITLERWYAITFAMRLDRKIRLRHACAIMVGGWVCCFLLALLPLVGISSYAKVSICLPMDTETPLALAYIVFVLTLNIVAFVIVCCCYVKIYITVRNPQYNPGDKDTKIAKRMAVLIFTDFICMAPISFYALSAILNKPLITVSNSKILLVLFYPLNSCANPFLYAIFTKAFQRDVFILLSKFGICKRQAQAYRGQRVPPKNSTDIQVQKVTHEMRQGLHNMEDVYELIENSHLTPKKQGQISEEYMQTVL
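HEK 293 cells stably expressing TSHR and a modified CNG channel, with CNG-only parental cells as counterscreen, were preloaded 60 min at room temperature with membrane potential dye containing 100 uM RO 20-1724. Compound exposure was 30 min, and depolarization was read as fluorescence at 590 nm.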
* hit, by the source's call; i = inactive; ? = inconclusive; nt = not tested or not shown; & = joins results of further samples; [ ] = dose if it differs, or a comment.

SMILES | A647 autofl | Resorufin autofl | AID923 | A488 fluor | TSHR agonist
CC(C)NC(=O)N1CC[C@@]2(CCCNC2)C1 | 2.8e-09 | i | 0.8% | i | 10.9%
O=C(Nc1cccc(F)c1)N1CC2(CCNCC2)C1 | 1e-09 | i | -1.1% | i | -4.0%
CN(C)C(=O)Nc1cccc(C(F)(F)F)c1 | nt | nt | 1.0% | nt | -4.9%
CN(C)c1nc(OCCNC(=O)COc2ccc(Cl)cc2Cl)nc(N2CCCCC2)n1 | 2.88e-08 | i | -0.6% | i | ?
O=[As](O)(O)c1ccc(N=Nc2ccc(O)cc2)cc1 | 1e-09 | i | 1.1%[11.5 µM] | i | 7.3%[11.4 µM]
Cc1ccc(S(=O)(=O)N2CCCC(C(=O)N3CCC4(CC3)OCCO4)C2)cc1 (configuration not stated) | 2.7e-09 | i | -1.1% | i | 5.1%
CC1(C)CC(n2[nH]c(=O)c3c2NC(=O)CSC3c2ccccc2)CCO1 (configuration not stated) | 2.5e-09 | i | nt | i | nt
Cc1c2cnn(CC(=O)N3CCC4(CC3)OCCO4)c(=O)c2c(C)n1Cc1ccc(F)cc1 | nt | nt | 0.3% | nt | 5.8%
CN1CCC2(CC1)NC(=O)C1=C(CN(C)CC1)N2 | 1.93e-08 | i | -0.7% | i | 14.4%
COc1ccc2c(c1OC)C(=O)OC2c1c(O)n(C2CCCCC2)c(=O)[nH]c1=O (configuration not stated) | 5.96e-08 | i | nt | i | nt
Fc1ccc2c(c1)nnn2C1CCN(Cc2nnnn2CCc2ccccc2)CC1 | 2.2e-09 | i | 2.1% | i | 2.0%
c1ccc(CCN2CCC(N3CCN(c4ccccc4)CC3)CC2)cc1 | nt | nt | 1.1% | nt | 2.4%
N#Cc1ccccc1Cn1cc(C(=O)c2ccco2)c2ccccc21 | 3.55e-08 | i | 0.2% | i | ?
CC[N+](C)(C)c1cccc(O)c1 | 2.2e-09&6.6e-09&1.83e-08 | i | -2.2% | i | ?
CC(C)[N+](C)(CCC(C(N)=O)(c1ccccc1)c1ccccc1)C(C)C | 6.02e-08 | i | -1.0% | i | -22.0%[25.6 µM]
COc1ccc2c(c1O)-c1c(OC)c(OC)cc3c1[C@@H](C2)N(C)CC3 | 1.08e-08 | i | 1.9% | i | 26.3%
C[C@@H]1CC[C@@H]2N(C1)C[C@H]1[C@@](O)([C@H](O)C[C@]3(O)[C@H]4CC[C@H]5[C@]6(O)O[C@]4(C[C@]13O)[C@@]5(C)CC[C@@H]6O)[C@@]2(C)O | 1e-09 | i | -1.1%[11.5 µM] | i | -3.9%[11.4 µM]
CCOc1ccc(-n2c(CC)nc3ccccc3c2=O)cc1 | nt | nt | -0.8% | nt | 3.8%
COC(=O)N1CCN(C(=O)Cc2ccc(Cl)c(Cl)c2)[C@H](CN2CCCC2)C1 | 6.6e-09 | i | -0.3%&0.3% | i | 6.3%&-1.7%
Cc1cc(OCC(=O)Nc2c(C)n(C)n(-c3ccccc3)c2=O)c2c3c(c(=O)oc2c1)CCC3 | 1e-09 | i | 2.3% | i | -5.7%
COc1cc(C(=O)OC2C[C@H]3CC[C@@H](C2)N3C)ccc1O (some centres not stated) | 1.2e-09 | i | 0.1%[25.7 µM] | i | -10.8%[25.6 µM]
CC(C)(Cc1c[nH]c2ccc(Cl)cc12)NCCOc1ccccc1OCC1CC1 | nt | nt | -5.1% | nt | 14.5%
C(#CCN1CCCC1)CN1CCCC1 | 1.18e-08 | i | -1.5%[25.7 µM] | i | 1.1%[25.6 µM]
CC(C)=CCSc1nnc([C@@H](N)Cc2c[nH]c3ccccc23)o1 | 7.4e-09 | i | 2.1% | i | nt
CC(=O)c1cccc(OCC(O)CN2CC=C(c3ccccc3)CC2)c1 (configuration not stated) | 1.45e-08 | i | -1.1% | i | ?
C=CCN1CC[C@]23c4c5ccc(O)c4O[C@@H]2/C(=N/NC(=O)c2ccccc2)CC[C@@]3(O)[C@H]1C5 | 7.7e-09 | i | -1.0% | i | 1.7%
C#CCN[C@@H](C)Cc1ccccc1 | 1.6e-09 | i | -2.5% | i | nt
C=C1N2CCC(CC2)C1(O)c1ccccc1C (configuration not stated) | 2.52e-08 | i | 0.5% | i | 3.0%
C[C@H]1CCC[C@H](O)CCCCCc2cc(O)cc(O)c2C(=O)O1 | 1e-09 | i | 0.4%&-2.1% | i | 8.1%&24.1%
NC(=NCc1ccc(Cl)cc1)SCCCc1cnc[nH]1 | nt | nt | -0.5% | nt | 10.5%

Among those listed so far, 3 have an aryl methoxy group:
SMILES | A647 autofl | Resorufin autofl | AID923 | A488 fluor | TSHR agonist
COc1ccc2c(c1OC)C(=O)OC2c1c(O)n(C2CCCCC2)c(=O)[nH]c1=O (configuration not stated) | 5.96e-08 | i | nt | i | nt
COc1ccc2c(c1O)-c1c(OC)c(OC)cc3c1[C@@H](C2)N(C)CC3 | 1.08e-08 | i | 1.9% | i | 26.3%
COc1cc(C(=O)OC2C[C@H]3CC[C@@H](C2)N3C)ccc1O (some centres not stated) | 1.2e-09 | i | 0.1%[25.7 µM] | i | -10.8%[25.6 µM]

Further compounds follow:
SMILES | A647 autofl | Resorufin autofl | AID923 | A488 fluor | TSHR agonist
CC(=O)O[C@H]1CC[C@@]2(C)C(=CC[C@@H]3[C@H]2CC[C@]2(C)C(=O)CC[C@H]32)C1 | 2e-08 | i | 0.0%[25.7 µM] | i | -10.0%[25.6 µM]
CCCCn1c(O)c(C(CC)=Nc2ccc(C(=O)O)cc2)c(=O)[nH]c1=O | 5.1e-09 | i | 1.2% | i | -3.6%
COS(C)(=O)=O | nt | nt | 1.8% | nt | ?
CN1C(=O)CCS(=O)(=O)[C@@H]1c1ccc(Cl)cc1 | 4.6e-09 | i | -0.7%[25.7 µM] | i | -18.5%[25.6 µM]
COCCOC(=O)c1c(C)oc2ccc(OC(=O)N(C)C)cc12 | 1e-09 | i | -0.8% | i | 11.0%
C=CCOC(C)=O | nt | nt | 1.8% | nt | 3.7%
CC(=O)N1CN2CN(C(C)=O)CC(C(=O)c3ccccc3)(C2)C1 | nt | nt | 0.0% | nt | -0.8%
O=C(c1cc2cc3ccc(Cl)cc3nc2o1)N1CCC2(CC1)OCCO2 | 1e-09 | i | 0.1% | i | 2.3%
CN1CCCC2(CCN(C(=O)c3csnn3)CC2)C1 | 1.75e-08 | i | 1.7% | i | ?
O=C(Oc1ccc([N+](=O)[O-])cc1)N1CCC(N2CCCCC2)CC1 | nt | nt | 1.1% | nt | -2.6%
Cc1sc2c(c1C)C(c1cccs1)=NCC(=O)N2CC(=O)NCc1cccs1 | 4.9e-09 | i | -1.4% | i | ?
Nc1nc(N)c(Cn2ccnc2)c(=O)[nH]1 | 1e-09 | i | 1.9%[11.5 µM] | i | ?
O=C1C2CCN(CC2)C1(CO)CO | 1.97e-08 | i | 0.0%[11.5 µM] | i | 2.6%[11.4 µM]
Cc1ccc2nc(N3CCC(C(=O)N4CCC5(CC4)OCCO5)CC3)sc2c1 | nt | nt | 2.3% | nt | 15.7%
CCn1c(O)c(C=NCCc2c[nH]c3ccccc23)c(=O)[nH]c1=O | 1e-09 | i | -0.2% | i | -3.6%
CCOC(=O)C1CCCCC12C(C#N)=C(N)Oc1n[nH]c(C)c12 (configuration not stated) | 3.9e-09 | i | 0.7% | i | 12.4%
CC1=[N+]([O-])C2(N)CCc3nonc3C2(O)C1 (configuration not stated) | nt | nt | 0.2% | nt | 6.6%
C(=C/c1ccccc1)/CN1CCN(CCOC(c2ccccc2)c2ccccc2)CC1 | nt | nt | -3.2% | nt | 31.6µM*

Copied from the listing, 16 compounds:
SMILES | A647 autofl | Resorufin autofl | AID923 | A488 fluor | TSHR agonist
CCCCn1c(O)c(C(CC)=Nc2ccc(C(=O)O)cc2)c(=O)[nH]c1=O | 5.1e-09 | i | 1.2% | i | -3.6%
COS(C)(=O)=O | nt | nt | 1.8% | nt | ?
CN1C(=O)CCS(=O)(=O)[C@@H]1c1ccc(Cl)cc1 | 4.6e-09 | i | -0.7%[25.7 µM] | i | -18.5%[25.6 µM]
COCCOC(=O)c1c(C)oc2ccc(OC(=O)N(C)C)cc12 | 1e-09 | i | -0.8% | i | 11.0%
C=CCOC(C)=O | nt | nt | 1.8% | nt | 3.7%
CC(=O)N1CN2CN(C(C)=O)CC(C(=O)c3ccccc3)(C2)C1 | nt | nt | 0.0% | nt | -0.8%
O=C(c1cc2cc3ccc(Cl)cc3nc2o1)N1CCC2(CC1)OCCO2 | 1e-09 | i | 0.1% | i | 2.3%
CN1CCCC2(CCN(C(=O)c3csnn3)CC2)C1 | 1.75e-08 | i | 1.7% | i | ?
O=C(Oc1ccc([N+](=O)[O-])cc1)N1CCC(N2CCCCC2)CC1 | nt | nt | 1.1% | nt | -2.6%
Cc1sc2c(c1C)C(c1cccs1)=NCC(=O)N2CC(=O)NCc1cccs1 | 4.9e-09 | i | -1.4% | i | ?
Nc1nc(N)c(Cn2ccnc2)c(=O)[nH]1 | 1e-09 | i | 1.9%[11.5 µM] | i | ?
O=C1C2CCN(CC2)C1(CO)CO | 1.97e-08 | i | 0.0%[11.5 µM] | i | 2.6%[11.4 µM]
Cc1ccc2nc(N3CCC(C(=O)N4CCC5(CC4)OCCO5)CC3)sc2c1 | nt | nt | 2.3% | nt | 15.7%
CCn1c(O)c(C=NCCc2c[nH]c3ccccc23)c(=O)[nH]c1=O | 1e-09 | i | -0.2% | i | -3.6%
CCOC(=O)C1CCCCC12C(C#N)=C(N)Oc1n[nH]c(C)c12 (configuration not stated) | 3.9e-09 | i | 0.7% | i | 12.4%
CC1=[N+]([O-])C2(N)CCc3nonc3C2(O)C1 (configuration not stated) | nt | nt | 0.2% | nt | 6.6%

Screens: PubChem, National Center for Advancing Translational Sciences (NCATS)

Not all compounds are listed. The share of hits here may be higher or lower than overall.
